Source: PubChem BioAssay (PCMD)
Biofilm kill mix: mixture kills Candida albicans biofilm cells; C. albicans biofilm persisters + clotrimazole, fluorescence viability; primary screen in compound mixtures of four per well; inhibition, % at 7.6 µM; actives 0.02% (n = 120,000); AID 1242;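 active = inhibition above 30.3% in the primary screen of four-compound pools, then above 30% when the compound was retested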;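 note: compounds exposed to preformed 24 h biofilms for 48 h; the number belongs to the whole pool; some results filed as inactive read as strong as hits; inactives centre near 12; 0% = biofilm with clotrimazole alone and 100% = kill control; retested singly at about 60 µM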
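Probe or stimulus – Clotrimazole 50 µg/mL co-treatment · System – C. albicans biofilms · Schedule – 24 h biofilm formation, then 48 h compound exposure, 37 °C · Evaluation – percent inhibition of biofilm viability · Technique – 2-h Alamar Blue fluorescence, 535/590 nm excitation/emission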
* hit, by the source's call. An excerpt; rates above refer to the full screens.

SMILES | Biofilm kill mix
COc1cccc(/C=N/Nc2snc(SC)c2C#N)c1O | 16
CC(=O)c1ccc(-n2c(SCC(=O)c3c[nH]c4ccccc34)nc3ccccc3c2=O)cc1 | 20
Cc1cc(C(=O)NCCc2ccc(Cl)cc2)n(-c2ccccc2)n1 | 25
CN1CCN(C(=S)c2cn(Cc3ccccc3F)c3ccccc23)CC1 | 12
COC(=O)C1(O)CC(C(C)C)=NN1C(=O)c1ccccc1 (configuration not stated) | 20
CC(=O)c1c(O)cc(C)n(-c2ccc(F)cc2)c1=O | 5
Cc1ccccc1C(=O)Oc1cc(N)n(S(C)(=O)=O)n1 | 4
Cc1cccc(C)c1NC(=O)CCn1cnc2ccccc2c1=O | -6
Cc1nc(SCC(=O)NCc2ccco2)c2c(=O)n(C)c(=O)n(CC(C)C)c2n1 | 15
COC(=O)c1nnn(-c2ccsc2C(=O)OC)c1C(=O)OC | 8
FC(F)Sc1ccc(-n2c(-c3ccc(Cl)cc3)c[n+]3c2CCC3)cc1 | 6
COC(=O)c1ccccc1NC(=O)c1ccccc1N(C)S(=O)(=O)c1ccccc1 | 13
CCON1C(=O)CN(C(=O)OC)C1c1ccc(Cl)cc1Cl (configuration not stated) | 14
COc1ccc(Oc2ccccc2C#N)cc1 | 7
CC(=O)NC(CC(=O)NCCN1C(=O)S/C(=C\c2ccccc2)C1=O)c1ccccc1 (configuration not stated) | 2
CC1Cc2ccccc2N1C(=S)Nc1ccc(S(N)(=O)=O)cc1 (configuration not stated) | 15
CC(=O)c1sc(NC(=O)COc2ccc([N+](=O)[O-])cc2)nc1C | 11
O=C(Nc1nc(-c2ccc3c(c2)OCCO3)cs1)C1CCCC1 | -4
Cc1nn(C)cc1-c1n[nH]c(=S)n1-c1ccc(Cl)cc1 | 12
O=C(Nc1ccn(-c2ccccc2)n1)c1ccccc1Br | -1
Cc1cc(/C=N/O)c(C)n1-c1ccccc1 | 19
CN(C)C(=O)c1ccc2c(c1[N+](=O)[O-])C(=O)c1ccccc1C2=O | 9
COc1ccc(NC(=S)N(CCN2CCOCC2)Cc2cc3cc4c(cc3[nH]c2=O)OCO4)cc1 | 9
O=C(O)c1ccc(OCC(F)(F)F)nc1 | 11
N/C(=N\OC(=O)Oc1ccccc1)c1cccc([N+](=O)[O-])c1 | 9
SMILES | Biofilm kill mix
Cc1cc(C(=O)COC(=O)c2ccc[nH]c2=O)c(C)n1-c1ccccc1 | 4
CCOC(=O)c1c(C)nn(-c2ncccc2NC(=O)CCC(=O)O)c1C | 3
CCOc1ccccc1N(CC(=O)NCC1CCCO1)C(=O)CNS(=O)(=O)c1ccccc1 (configuration not stated) | 17
COC(=O)C1=C(O)/C(=C\c2ccc(CNS(=O)(=O)c3ccccc3)o2)N=C1C | 4
Cc1ccc(C(=O)NC2CCCCNC2=O)cc1 (configuration not stated) | 31
CC12CCC(C/C1=N/O)C2(C)CBr (configuration not stated) | 5
CC(C)c1nc2c(c(=O)c3ccccc3n2C)c(=O)n1-c1ccc(F)cc1 | 16
C=C1C2C[C@H](O)C(C)(C)[C@@]2(O)[C@H](O)C[C@]23C[C@@](C)(O)[C@H](CC[C@H]12)[C@H]3O (some centres not stated) | 9
CCOc1ccc(-c2nc3ccccc3c(=O)o2)cc1 | 7
C#CCOCCOCCOCCNc1nc(N2CCN(C(=O)[C@H](C(C)C)n3cc(CCO)nn3)CC2)nc(N2CCN(C(=O)[C@H](C(C)C)n3cc(CCO)nn3)CC2)n1 | 6
Cc1ccc(NC(=O)OCCN2CCN(S(=O)(=O)c3ccc(C)cc3)CCC2=O)cc1 | 12
Cc1ccc(NC(=O)N(Cc2nc3ccccc3c(=O)[nH]2)Cc2cccs2)cc1 | 0
COC(=O)C(Oc1ccc2c(-c3ccc(OC)cc3)cc(=O)oc2c1)c1ccccc1 (configuration not stated) | 10
CCOc1cc(CNC(C)(C)C)ccc1OCC(=O)Nc1cccc(C(F)(F)F)c1 | 11
CCN(CC)c1ccc2cc(-c3nc(-c4ccc(OC)cc4)cs3)c(=O)oc2c1 | 17
COc1cc(/C=C/C(=O)O)cc(S(=O)(=O)N2CCc3ccccc3C2)c1OC | 4
Cc1ccc(OCC(=O)NNC(=O)C2CCCO2)c(C)c1 (configuration not stated) | 14
C/C(=N\Nc1ccc(Cl)c(Cl)c1)c1ccc(-n2ccnc2)cc1 | 8
Cc1ccc(-n2c(SCC(=O)Nc3cccc(S(N)(=O)=O)c3)nc3ccccc32)cc1 | 4
Cc1nccn1CC(=O)N/N=C/c1ccccc1O | -2
Cc1[nH]c2ccccc2c1C(=O)NS(=O)(=O)Nc1ccc(F)cc1 | 3
N#CCCN(Cc1cccnc1)C(=S)Nc1ccccc1Cl | 10
CC(NC(=S)NC1CCCCC1)C(c1cccs1)N1CCOCC1 (configuration not stated) | 16
Cc1cccc(NC(=O)Cn2c(=O)n(CCc3c[nH]c4ccccc34)c(=O)c3cccnc32)c1 | 7
COc1ccc(COc2cc(-c3cccc(OC)c3)nc3ccc(NC(=O)c4ccc(Cl)cc4)cc23)cc1 | 13
SMILES | Biofilm kill mix
COc1ccccc1C(=O)NCc1ccc(-c2nc3ccccc3s2)cc1 | 16
COc1cc(OC)cc(C(=O)N(CCCN2C(=O)c3cccc4cccc(c34)C2=O)c2cccc(OC)c2)c1 | 9
CC(C)(C)OC(=O)[C@H](Cc1ccccc1)NC(=O)c1nc[nH]c1C(=O)N[C@@H](Cc1ccccc1)C(=O)OC(C)(C)C | 15
CC1(C)CC(=O)C(CC2=C(N)CC(C)(C)CC2=O)=C(N)C1 | 8
O=c1c2ccccc2nc(SCc2ccncc2)n1CC1CCCO1 (configuration not stated) | 11
Cc1cccnc1NC(=S)NCc1ccco1 | 15
CCCN(CC1CC1)C(=O)CSc1nnc(-c2ccco2)n1N | 13
Cc1ccc(-c2csc(/C(C#N)=C/Nc3ccc4c(c3)OCCO4)n2)cc1 | 1
C=CCn1c(=N)c(C#N)cc2c(=O)n3ccccc3nc21 | 15
NS(=O)(=O)c1ccc(CCNC(=O)c2ccc3nc4ccc(Cl)cc4c(=O)n3c2)cc1 | 11
Cc1ccc(N2C(=O)CC(NCC3CCCO3)C2=O)cc1 (configuration not stated) | -9
Cc1c(C(=O)Nc2cccc(N(C)S(C)(=O)=O)c2)cccc1[N+](=O)[O-] | 13
CCN(c1ccccc1)S(=O)(=O)c1ccc(Cl)c(C(=O)N(CC2CCCO2)C2CCS(=O)(=O)C2)c1 (configuration not stated) | 7
O=C(CCn1c(=O)oc2ccccc21)NCc1cccs1 | 7
CCC(C)C(=O)Nc1nnc(SCC(=O)Nc2ccccc2F)s1 (configuration not stated) | 12
O=c1[nH]c(N2CCN(Cc3ccccc3)CC2)nc2c1CCC2 | 1
O=C(CNCc1ccccc1)Nc1ccc(Oc2ccccc2)cc1 | 20
CC(=O)NNc1[nH]c2c(c(=O)c1[N+](=O)[O-])c(=O)n(C)c(=O)n2C | 8
Cc1nn(-c2ccccc2)nc1C(=O)Nc1ccc2[nH]ncc2c1 | 27
O=C(Nc1ccc2c(c1)C(=O)OC2)Nc1cccc2ccccc12 | -1
CC1(C)C(=O)C2(CCCCC2)C(=O)OC1c1cccn1-c1ccc([N+](=O)[O-])cc1 (configuration not stated) | 1
O=C(O)/C=C/c1ccc(-c2cccc(C(F)(F)F)c2)o1 | 10
COc1cc(OC)cc(-c2n[nH]c(=S)n2-c2ccc3c(c2)OCO3)c1 | 8
O=C(NC(=S)Nc1ccccc1[N+](=O)[O-])c1ccccc1Cl | 15
Cc1ccc(CNC(=O)C(=O)NCC2OCCN2C(=O)c2cccs2)cc1 (configuration not stated) | 0
SMILES | Biofilm kill mix
CCOC(=O)c1c(NC(=O)CN2CCN(C(=O)c3ccco3)CC2)sc(C(N)=O)c1C | 6
O=C(c1ccc(Cl)c([N+](=O)[O-])c1)N1CCN(Cc2ccc3c(c2)OCO3)CC1 | 16
O=C(O)Cc1ccc(NC(=O)Nc2cccc(Cl)c2)cc1 | -6
COC(=O)[C@@H]1C[C@@]2(O)[C@@H](O)[C@@H](O)[C@@H](O)C[C@H]2N1Cc1ccc(Cl)cc1 | -2
COc1cccc(-n2nnc3c(=O)n(Cc4c(F)cccc4Cl)cnc32)c1 | 11
CCCNC(=O)CSCc1nc(-c2ccc(SC)cc2)oc1C | 9
O=C(O)CC12CC3CC(C1)CC(n1ncc(NCc4ccc(F)cc4)c(Cl)c1=O)(C3)C2 | 11
O=C(Nc1ccc(NC(=O)C23CC4CC(CC(C4)C2)C3)cc1)c1cc(F)c(F)cc1Cl | 9
CCc1cccc2c(C(=O)COC(=O)c3ccc([N+](=O)[O-])s3)c[nH]c12 | 16
O=C(NC(Cc1c[nH]c2ccccc12)c1nnc2n1CCCCC2)c1cccs1 (configuration not stated) | 13
O=C(Nc1ccc(-c2csc(Nc3ccc(Cl)cc3)n2)cc1)c1cc([N+](=O)[O-])cc(C(F)(F)F)c1 | 11
Cc1cc2c(cc1S(=O)(=O)N(C)c1ccccc1)NC(=O)CO2 | 6
COc1ccc(C2NC(=O)NC(C)=C2C(=O)OCc2ccc3c(c2)OCO3)cc1OC (configuration not stated) | -7
CCOc1ccc(CC(=O)NNC(=S)NC)cc1 | 7
CCC(=O)Nc1ccc(Cl)c(NC(=S)NC(=O)COc2ccc(Cl)cc2)c1 | 11
Cc1ccc(NC(=O)NCCSc2ccc(C)cc2)cc1 | 7
CCSC1=C(C#N)C(CC(C)C)C2=C(CCCC2=O)N1 (configuration not stated) | 6
CCOc1cc(CN2CCN(Cc3ccc(C)o3)C(CCO)C2)ccc1OC (configuration not stated) | 0
O=S(=O)(c1ccc(-c2csc(-c3cccnc3)n2)cc1)N1CCOCC1 | 30
COc1ccccc1NC(=O)c1ccc(C(=O)c2ccccc2)o1 | -7
C=CCN(c1ccccc1)S(=O)(=O)c1cccc(C(=O)Nc2nnc(SCC)s2)c1 | 6
CC(=O)Nc1ccc(NC(=O)c2c(C)nn(-c3ccccc3)c2Cl)cc1C | 5
Nc1ccc(C(=O)OCc2nc3cc4ccccc4cc3[nH]2)cc1 | 16
O=C(NCc1ccco1)C(=O)NCC1OCCN1S(=O)(=O)c1ccc(Br)cc1 (configuration not stated) | 25
COc1cccc(/C=C/C(=O)N2CCN(S(=O)(=O)c3ccccc3)CC2)c1OC | 12
SMILES | Biofilm kill mix
CCN1CCCc2cc(CN(CCN3CCOCC3)C(=S)Nc3cccc(OC)c3)ccc21 | 6
Cc1cc(N/N=C/c2cccc(Cl)c2)nc(-n2nc(C)cc2C)n1 | 4
Cc1ccc(C(=O)NCCSCc2ccc(Cl)cc2Cl)cc1[N+](=O)[O-] | 19
Cc1cccc(OCC(=O)Nc2ccc3c4c(cccc24)CC3)c1C | 19
NS(=O)(=O)c1ccc(CCNC(=O)CSCc2ccccc2)cc1 | 15
Cn1c(SCC(=O)Nc2ccc3nc(SCC(=O)NC4CC4)sc3c2)nnc1-c1ccccc1 | 11
Cc1cc(C)c(OCC(=O)Nc2nc3ccccc3[nH]2)c(C)c1 | 10
O=C(O)C1=C[C@H](c2coc3ccccc3c2=O)C[C@H](OCc2ccc(CO)cc2)O1 | 16
Cc1ccc([N+](=O)[O-])cc1NC(=S)NC(=O)c1cccs1 | 10
O=C(CSc1ccc2ccccc2n1)Nc1ccc(N2CCOCC2)cc1 | -3
CC1=NN(c2ccc(C(=O)O)c(N)c2)C(=O)C1 | 22
O=C(NNC1=NCCCCC1)Nc1cccc(Cl)c1 | 12
CC(=O)Nc1sc(N/N=C/c2ccccc2)nc1-c1ccc(C)cc1 | 27
C=CCn1c(N)cc(=O)nc1SCC(=O)Nc1ccccc1C(N)=O | 1
CC(C)(C)NC(=O)/C=N/O | 7
CCOC(=O)c1c(NC(=O)C2CCCN(S(=O)(=O)c3ccc(C)cc3)C2)sc2c1CCCC2 (configuration not stated) | 22
CC1(C)CC(=O)C(C=NCCN2CCNC2=O)=C(O)C1 | 9
O=C1COc2ccc(C(=O)COC(=O)COc3ccccc3[N+](=O)[O-])cc2N1 | 22
COc1c(NC(C)=O)c2ccccc2c2ccccc12 | 9
O=C(Nc1cccnc1Cl)c1ccc(Cl)c([N+](=O)[O-])c1 | -4
CN(C)C(CNC(=O)c1oc2ccccc2c1CSc1ncn[nH]1)c1ccco1 (configuration not stated) | -1
COc1ccc(/C=C2\CCc3ccccc3C2=O)c(OC)c1OC | 15
O=C1c2ccc3c4c(ccc(c24)C(=O)N1c1cccc(O)c1)C(=O)N(c1cccc(O)c1)C3=O | 16
Cc1ccc(NC(=S)N(CCN2CCOCC2)Cc2ccccc2F)cc1 | 9
